# Rce1 inhib: yeast Ras-converting enzyme inhibition | Q03530 | yeast membranes, quenched prenylated peptide cleavage fluorescence | calls only | 290,000 tested, 0.27% active;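 active = fall in fluorescence gain of 50% or more versus controls, with final raw signal at or below 3038400; inconclusive = same 50% fall but final raw signal above 3038400; inactive = fall in fluorescence gain under 50%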;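 note: plate controls were neutral control wells for no effect and wells lacking membranes for full effect; tested at 10 µM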
# Target sequence (Q03530 whole entry, looked up): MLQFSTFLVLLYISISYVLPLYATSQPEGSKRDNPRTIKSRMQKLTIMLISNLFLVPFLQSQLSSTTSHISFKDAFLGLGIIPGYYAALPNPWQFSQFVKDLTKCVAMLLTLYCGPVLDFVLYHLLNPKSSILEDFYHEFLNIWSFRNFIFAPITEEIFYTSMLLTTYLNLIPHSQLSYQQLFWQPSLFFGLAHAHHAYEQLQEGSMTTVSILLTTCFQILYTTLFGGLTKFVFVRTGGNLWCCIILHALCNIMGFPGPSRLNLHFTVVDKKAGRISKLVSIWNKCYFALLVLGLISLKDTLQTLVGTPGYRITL
# MT1-MMP act inh: inhibitors of human MT1-MMP activation; AID 651647; HT1080 RFP-PRO-GFP cells, GFP/RFP ratio fluorescence, overnight; percent of plate control window, DMSO zero; GFP/RFP ratio change, % at 20 µM; 360,000 tested, 0.061% active;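 active = GFP/RFP ratio change of at least 30% with cell ATP level not reduced by more than half and red fluorescence within 50% of control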; note: strong numbers were not always called active
#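 Assay system: RFP-PRO-GFP reporter HT1080 cells; read-out basis: GFP/RFP fluorescence ratio; benchmarks: DMSO wells and RFP-L50D-GFP cells; doses: 20 µM single dose, 1% DMSO; schedule: overnight cell settling, then overnight compound exposure, 37 °C, 5% CO2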
# Yeast UUG start: yeast start codon fidelity modulation; activity score, % at 18.7 µM; S. cerevisiae UUG-firefly luciferase reporter, luminescence/redox ratio; 350,000 tested, 0.13% active;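 active = replicate mean at a twofold rise or more, about +100% in these data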;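 note: firefly luciferase made from a UUG start codon reports start codon fidelity; reporter light over untreated wells divided by growth signal over untreated wells; some hits fall short of that in this replicate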
# CSC inhib: blocks cancer stem cells. 300,000 tested, 1.1% active. inhibition, % at 7.5 µM. cancer stem cell-like cells viability, luminescence. AID 2717;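 active = mean at 75% or more and at least half the replicates too; inconclusive = mean and replicates disagree; tested in HMLE shEcad cells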;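 note: 0% = median of negative and 100% = median of positive control wells; the first replicate is given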
# PABP FP inh: blocks human PABP binding to poly(A) RNA. P11940. fluorescence polarization. inhibition, % at 35 µM. 290,000 tested, 1% active. AID 2014;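 active = 50% or more with normal probe brightness, or confirmed in later tests; inconclusive = above 50% with abnormal brightness, or retests that disagree; inactive = below 50% or failed in later tests; about a fifth of its hits are not listed in these tables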;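 note: calls also rest on retests at 20 µM and on dose response follow-up; controls were probe without protein and protein plus probe with vehicle; some compounds called inactive have numbers as strong as hits; many hits fall short of the cut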
# Env fusion inh: blocks HIV Env-driven cell-cell fusion; HeLa-JRFL Env/CEM21 cell fusion, luciferase; 360,000 tested, 1.1% active; inhibition, % at 12.3 µM; AID 651610;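 active = mean replicate inhibition score of at least 50 and every replicate individually at or above 50; inconclusive = only one of the two criteria met; inactive = mean below 50 and not all replicates reaching 50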;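 note: 0% = plate neutral controls and 100% = maraviroc near 300 nM; one replicate is shown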
# eIF4H inh: inhibitors of RNA binding by human eIF4H. Q15056. eIF4H fluorescence polarization binding assay. inhibition, % at 35 µM. 290,000 tested, 0.94% active;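 active = 50% or more with normal probe brightness, or confirmed in later tests; inconclusive = above 50% with abnormal brightness, or retests that disagree; inactive = below 50% or failed in later tests; about a fifth of its hits are not listed in these tables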;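 note: calls also rest on retests at 20 µM and on dose response follow-up; 0% = protein and probe with vehicle and 100% = probe without protein; strong numbers were not always called active; many hits fall short of the cut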
# MT1-MMP act inh RFP: also measured in MT1-MMP act inh; calls as there; RFP signal change, %; measured here: RFP expression control read;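 0 = vehicle wells; hits needed this value within 50% of zero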
# Starred values were filed as active, the others as inactive; i = inactive; ? = inconclusive; . = no result given; + = active, no number; & = joins results of further samples.
SMILES,Rce1 inhib,MT1-MMP act inh,MT1-MMP act inh RFP,Yeast UUG start,CSC inhib,PABP FP inh,Env fusion inh,eIF4H inh
COc1ccc(C2(C)NC(=O)NC2=O)cc1OC (stereo not given),i,-0.9,5.8,-12.9,-15.1,-4.8,-7.4,-14.1
O=C(CCc1nnc(CCCc2ccccc2)o1)NCCN1CCOC1=O,i,-4.2,-0.7,.,13.5,9.0,11.3,9.8
COC(=O)CN(c1ccccn1)S(=O)(=O)c1ccccc1,i,-4.7,5.0,-10.9,-13.1,-3.0,12.2,1.0
COc1ccccc1CNC(=O)COC(=O)c1cc(=O)c2ccccc2o1,.,5.8,2.1,0.9,-10.5,.,2.4,.
Cc1cccc(-c2ocnc2C(=O)Nc2ccccc2C(=O)N2CCCC2)c1,i,1.0,5.4,-10.1,20.8,11.5,2.0,2.9
O=C(Nc1ccc(SC(F)F)cc1)C1=COCCO1,i,2.4,1.2,-7.5,-7.3,-5.9,.,-11.7
CC(Cc1cccs1)N(Cc1ccc(Cl)cc1)C(=O)c1ccncc1 (stereo not given),i,-3.6,-6.3,-13.8,-5.3,4.3,3.5,-2.0
C=CCN(c1ccccc1OC)S(=O)(=O)c1cccc(C(=O)OCC(=O)N2CCOCC2)c1,.,1.0,-5.1,-32.0,5.8,.,-4.5,.
O=C(CSC1=NCCS1)Nc1nc2c(s1)CCCC2,i,-1.6,-2.2,-23.7,2.8,3.5,17.2,-2.7
CC(NC(=S)Nc1c(Br)cccc1OC(F)F)C(C)(C)C (stereo not given),i,2.2,-2.9,.,-5.4,-3.4,-26.2,-6.6
O=C(COC(=O)CSc1cc(Cl)ccc1Cl)Nc1ncc(C(F)(F)F)cc1Cl,i,2.2,5.4,-14.6,-2.8,1.4,.,0.6
CCn1c(SCC(N)=O)nnc1-c1ccc(S(=O)(=O)N2CCN(C)CC2)cc1,i,4.0,5.3,-9.4,.,11.4,1.0,-4.5
CN(C)c1ccc(-c2ccnc3c2CC(C)(C(=O)Nc2cccc(N(C)C)c2)O3)cc1 (stereo not given),.,1.7,7.4,9.6,.,.,-5.8,.
Cc1cc(=O)cc(C)n1-c1ccc(Br)cc1,i,-11.8,-8.1,.,-2.8,0.5,11.1,-4.0
COc1ccc(NC(=O)CCCn2cnc3ccccc3c2=O)cc1,i,-3.7,0.0,-14.8,.,3.0,5.4,-6.4
COc1cccc2c(Nc3ccccc3C)cc(C)nc12,i,1.0,1.1,-8.9,7.4,7.5,10.3,-2.5
COC(=O)c1ccc(COc2ccccc2/C=N/NC(=O)c2cccnc2)cc1,i,0.7,0.4,-0.4,10.1,-0.7,-45.4,1.8
CCOc1cc(C(=O)NCc2nnc(SCC(=O)OC)n2C)cc(OCC)c1OCC,i,-8.8,-2.1,.,-19.0,1.5,-49.9,-1.0
O=C(Nc1ccc(-c2nnc3n2CCCCC3)cc1)c1ccco1,.,-1.4,0.0,-19.0,-2.6,-2.5,6.9,1.8
Cc1ccc2scc(CN3CCCC3)c2c1,i,-3.4,-1.8,-8.3,-9.1,.,15.7,.
COc1ccc(NC(=S)N(CCCN2CCCCCC2)Cc2cccs2)cc1,i,1.8,3.3,10.5,-10.3,9.0,1.4,1.8
COCc1cc(C)nc(SCC(=O)Nc2ccc3[nH]c(=O)[nH]c3c2)c1C#N,i,5.7,1.9,-15.3,-8.3,15.1,6.0,6.4
Cn1c(SCc2nc3cc(C(=O)O)ccc3c(=O)[nH]2)nnc1C(F)(F)F,i,0.5,0.5,.,-5.3,9.4,11.5,6.6
c1cc2c(cc1-c1csc(NNC3=NCCCCC3)n1)OCCO2,i,.,.,.,18.3,1.0,-45.0,-0.7
COc1ccc(C(=O)OCC(=O)NC23CC4CC(CC(C4)C2)C3)c(OC)c1OC,.,-0.7,-2.3,-2.1,-2.2,.,.,.
CCN1C(=O)[C@H]2[C@@H](c3ccc(C)cc3)N[C@]3(CCCN(Cc4ccccc4)C3=O)[C@H]2C1=O,.,1.8,3.9,-3.1,.,.,8.6,.
COc1cccc(NC(=O)CN2C(=O)NC3(CCc4ccccc43)C2=O)c1 (stereo not given),.,-1.2,2.1,-9.0,-15.6,.,-4.6,.
Clc1ccc2nc3c4ccccc4cnn3c2c1,i,-0.8,0.5,.,13.5,2.4,-189.1,3.0
Cc1ccc(S(=O)(=O)NCC(=O)N/N=C/c2ccc(Cl)cc2)cc1,i,-1.4,-0.2,-6.7,-3.5,11.6,-13.5,8.5
CN1CCN(S(=O)(=O)c2ccc(Oc3cccc(C(F)(F)F)c3)nc2)CC1,i,0.0,-6.9,-11.7,-0.6,.,2.7,.
O=C(NNC(=O)c1ccccc1C(=O)O)c1ccc(S(=O)(=O)N2CCCCC2)cc1,i,-4.6,0.7,-14.7,.,8.0,6.7,-2.0
O=C(Nc1ccnn1C1CCN(CC2CC=CCC2)CC1)c1ccccc1Cl (stereo not given),i,-0.2,0.7,-9.6,.,9.2,3.3,-4.0
COc1cc(OC)cc(C(=O)NNC(=O)CCNS(=O)(=O)c2ccc(Br)cc2)c1,.,4.3,1.0,-0.4,-12.2,.,?,.
Cc1ccc(/C=C/C(=O)O)cc1S(=O)(=O)Nc1ccc2c(c1)OCO2,i,-0.9,6.2,1.2,-13.1,18.8,-3.9,10.1
CCCCCCNS(=O)(=O)c1ccc(Cl)s1,i,2.7,-1.2,-8.9,7.2,2.0,-13.8,6.1
CN(Cc1ccccc1)C(=O)c1nc2ccccn2c1CN1CCCC1c1nccs1 (stereo not given),i,-2.0,3.1,-6.6,-4.1,7.2,3.2,-1.1
O=c1[nH]c2cc(Cl)c([N+](=O)[O-])nc2[nH]1,i,4.6,3.8,.,.,3.6,-38.3,-4.9
O=C(Cc1ccc(-c2ccccc2)cc1)Nc1ccccn1,i,-1.5,-4.1,-9.6,68.2,-5.0,-24.6,-21.3
C[C@H](CO)N1C[C@H](C)[C@@H](CN(C)S(=O)(=O)c2cn(C)cn2)Oc2ccc(NC(=O)Cn3cnnn3)cc2C1=O,.,4.6,2.6,-12.1&-3.3,-14.4,.,.,.
CCOc1cccc(CNc2ccc(O)cc2)c1OCc1ccc(Cl)cc1Cl,i,15.3,-2.2,-11.3,47.8,16.9,.,25.8
Cc1ccc(C(C(=O)NC(C)(C)C)N(C(=O)CCC(=O)Nc2ccccn2)c2ccccc2F)cc1 (stereo not given),i,-3.7,-1.6,4.6,-2.6,-9.4,26.0,0.7
COC(=O)c1cc2c(ccn2-c2ccc(F)cc2)n1C(C)C,.,-3.1,-0.1,-4.0,1.6,-2.7,-45.8,-4.7
Cc1cccc(NCc2nc3ccccc3n2Cc2ccccc2)c1,i,-1.8,-3.8,-22.2,3.3,-8.1,20.7,-5.6
COc1ccccc1N1CCN(Cc2cc3c(cc2[N+](=O)[O-])OCO3)CC1,i,1.6,2.1,-9.7,2.8,-0.4,-5.7,-1.9
CC(=O)Nc1ccc(Sc2ncccc2C(=O)Nc2ccc(OC(F)(F)F)cc2)cn1,.,-8.5,-9.2,.,9.2,13.4,.,9.8
CC(=O)N1CCC(N(CCN2CCOCC2)C(=S)Nc2cccc(C)c2)CC1,i,1.8,3.9,.,-29.7,1.4,11.2,5.7
Cc1ccc(NC(=S)c2nc3ccccc3[nH]2)cc1,i,6.4,-2.0,-22.7,52.8,3.2,.,10.1
CC(=O)Nc1ccc(S(=O)(=O)N[C@@H](C)C(=O)OCC(=O)NC2CCCC2)cc1,.,-1.6,2.4,-3.3,-19.5,.,.,.
CCCN1C(=O)C(=O)c2cc(Cl)ccc21,.,3.3,9.0,-14.8,10.1,.,-42.0,.
COc1cccc(OCCn2cc(/C=N/NC(=O)c3ccncc3)c3ccccc32)c1,i,0.8,-14.8,.,-2.4,-2.2,5.4,-0.3
O=CN1CCN(C(C(=O)NC2CCCCC2)c2ccc(Cl)cc2)CC1 (stereo not given),i,1.9,-0.1,-9.1,1.9,.,10.4,.
CCOC(=O)N1CCN(CCCc2ccccc2)CC1,i,4.6,5.3,-11.1,-7.2,10.8,12.7,5.8
O=C(CN1C(=O)c2ccccc2C1=O)OCCOCCN=C1NS(=O)(=O)c2ccccc21,i,3.6,3.5,-11.4,7.5,2.5,0.6,-12.5
CCOC(=O)CC(N)c1ccc(OC)cc1 (stereo not given),i,-5.8,-2.8,-1.2,-8.8,4.4,-12.9,6.0
O=C(CNC(=O)C1CCCCC1)NNC(=O)c1ccccc1Br,i,-1.5,0.5,-7.7,-20.8,1.9,-4.1,10.2
Cc1ccc(-n2c(C)cc(/C=N/NC(=O)CC3(C)OCCO3)c2C)c(C)c1,i,-4.4,0.9,-8.8,12.1,13.9,.,16.9
COCCNC(=O)CSc1nc2c(n1-c1ccccc1)CCCC2,i,6.6,-0.6,-7.8,-6.2,.,-26.1,.
COc1cc(CNc2ccc3c(c2)OCCO3)ccc1OCC(N)=O,i,2.6,4.2,.,.,12.3,3.0,14.0
O=c1c2ccccc2c(-c2ccc(F)cc2)nn1-c1ccc(C(F)(F)F)cc1,i,1.5,-6.1,-15.1,36.8,-7.5,.,-14.1
CCC(C)Sc1cccc(-c2nc3cc(C)ccn3c2NC2CCCCC2)c1 (stereo not given),.,4.2,-28.7,-12.6,.,.,38.5&21.6,.

# (further entries)
SMILES,Rce1 inhib,MT1-MMP act inh,MT1-MMP act inh RFP,Yeast UUG start,CSC inhib,PABP FP inh,Env fusion inh,eIF4H inh
CC(C)(C#N)Nn1cnnc1,i,-1.8,-1.1,-21.1,-3.4,15.1,.,-12.9
Cc1ccc2[nH]c(C)c(CCNC(=O)c3cc4cc([N+](=O)[O-])ccc4oc3=O)c2c1,i,3.8,2.4,2.6,36.3,-12.0,17.1,-12.0
Cn1nnnc1SCc1cc(=O)[nH]c2ccccc12,i,1.0,5.4,-9.7,-4.3,-5.5,.,-7.1
CCC(C)[C@H]1CNC(=S)N1CCc1cccc2ccccc12 (stereo not given in full),i,1.1,-2.9,-15.1,-2.7,5.6,17.4,0.1
CC(C)(C)c1ccc(C(=O)NCCC(=O)NNC(=O)COc2ccccc2F)cc1,.,6.3,1.5,2.6,-9.9,.,-29.2,.
Cn1cc(/C=C/c2cc[n+](C)cc2)c2cc(Cl)ccc21,i,-281.6,-27.6,-2.5,-9.0,?,31.9,?
O=C(N/N=C/c1ccc2c(c1)OCO2)c1cc2ccccc2o1,i,6.6,3.0,.,18.0,-3.8,4.9,9.1
COc1cc(OC)c2c(-c3cccc(-c4ccc(N(C)C)cc4)c3)cc(=O)oc2c1,.,10.7,-7.7,-43.8,.,.,-164.4,.
O=[N+]([O-])c1ccc(N2CCOCC2)cn1,.,2.7,4.3,.,14.0,-1.4,-3.0,3.6
CCSc1nsc(NC(=O)Nc2cccc(OC)c2)n1,i,-8.5,-26.6,-14.8,31.2,-0.8,-3.5,-7.0
COc1ccc(C2NCCO2)cc1OC (stereo not given),i,-3.3,-0.7,-16.2,-0.8,0.4,-43.6,-3.5
COc1ccc(C2CC(c3ccccc3)=NN2C(=O)c2ccc(Cl)c([N+](=O)[O-])c2)cc1 (stereo not given),+,-10.7,-13.6,.,-12.2,-11.0,12.9,-0.7

# This is a subset, so the mix of outcomes need not match the whole.
